PV pol inh – poliovirus RdRp elongation inhibitors, primary screen, biochemical, fluorescence polarization, total intensity; Genome polyprotein (Poliovirus type 1 (strain Mahoney)), P03300; poliovirus polymerase elongation; hits give low values; % elongation, % (compound at 16.7 µg/mL); 0.66% of 150,000 active; AID 588519, 2011; in the data active = % elongation below about 90%; also: some results filed as inactive read as strong as hits
Target sequence (P03300 1749-2209 limits assumed): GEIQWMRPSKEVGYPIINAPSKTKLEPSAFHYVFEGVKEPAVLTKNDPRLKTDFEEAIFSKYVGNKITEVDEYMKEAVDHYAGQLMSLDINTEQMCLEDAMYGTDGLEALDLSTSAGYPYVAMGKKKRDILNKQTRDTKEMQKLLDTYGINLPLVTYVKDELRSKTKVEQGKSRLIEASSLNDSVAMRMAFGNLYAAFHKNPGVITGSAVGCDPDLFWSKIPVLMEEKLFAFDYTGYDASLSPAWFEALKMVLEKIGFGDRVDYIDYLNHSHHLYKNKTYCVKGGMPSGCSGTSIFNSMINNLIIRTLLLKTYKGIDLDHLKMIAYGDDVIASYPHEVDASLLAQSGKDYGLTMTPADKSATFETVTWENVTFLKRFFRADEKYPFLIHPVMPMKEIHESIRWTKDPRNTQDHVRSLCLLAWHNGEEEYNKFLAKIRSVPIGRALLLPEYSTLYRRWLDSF
MenB inh – M. tuberculosis MenB inhibitors, primary screen, biochemical, absorbance. MenB enzyme assay, absorbance read-out; some hits fall short of the stated cut. inhibition, %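 (about 12 µg/mL by stock and volumes)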. AID 540299, 2011. 1,4-dihydroxy-2-naphthoyl-CoA synthase (Mycobacterium tuberculosis (strain ATCC 25618 / …. 0.43% of 100,000 active;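 active = mean of two replicates above 30%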;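 also: 0% = no compound and 100% = wells with inactive enzyme; the first replicate is given; strong numbers were not always called active; inactives centre near -10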
Mtb MbtI inh – MbtI salicylate synthase inhibitors, primary screen, biochemical, fluorescence intensity. P9WFX0. inhibition, %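 (about 17 µg/mL by stock and volumes)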. AID 493033, 2011. 0.89% of 100,000 active. purified MbtI enzyme, fluorescence intensity read-out;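 active = above 50% in both replicates, above 80% if mildly self-fluorescent; inactive = the rest, strongly fluorescent compounds included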;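 also: 0% = mean of negative and 100% = mean of positive controls; one replicate is shown; some compounds called inactive have numbers as strong as hits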
Target sequence (P9WFX0 whole entry, looked up): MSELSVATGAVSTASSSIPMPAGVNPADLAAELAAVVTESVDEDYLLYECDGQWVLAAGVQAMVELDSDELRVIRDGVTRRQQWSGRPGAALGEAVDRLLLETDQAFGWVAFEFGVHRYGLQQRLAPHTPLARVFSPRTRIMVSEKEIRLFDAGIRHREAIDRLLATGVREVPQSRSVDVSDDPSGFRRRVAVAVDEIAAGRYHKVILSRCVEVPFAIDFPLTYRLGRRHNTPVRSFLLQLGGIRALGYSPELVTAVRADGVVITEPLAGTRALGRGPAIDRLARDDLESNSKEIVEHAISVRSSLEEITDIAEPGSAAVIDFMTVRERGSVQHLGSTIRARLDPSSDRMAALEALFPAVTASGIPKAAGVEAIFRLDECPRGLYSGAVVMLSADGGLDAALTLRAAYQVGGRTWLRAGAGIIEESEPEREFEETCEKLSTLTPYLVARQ
PV pol inh intensity – recorded beside PV pol inh, whose call it bears; % elongation; measured here: total intensity read-out; formula for this scale not given here;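 total fluorescence in place of polarization; lower means less elongation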
* = called active by the depositor; . = no result given; & = joins results of further samples; ! = not confirmed by another sample.

SMILES	PV pol inh	PV pol inh intensity	MenB inh	Mtb MbtI inh
Cc1ccc(S(=O)(=O)Nc2nc3ccccc3nc2N2CC(C)OC(C)C2)cc1 (configuration not stated)	104	109	-34	-13
Cc1ccc(/C=C/c2onc3c(=O)[nH]nc(C)c23)cc1	107	113	-16	-13
Cc1cc(Nc2cnn(-c3nc4ccccc4o3)c(=O)c2Cl)ccc1Br	103	97	-13	7
CC(C)N(C(=O)CSCc1ccc(Cl)cc1)c1ccccc1	102	98	.	-1
CCc1ccc(NC(=O)NCC2CCN(c3ccc(OC)cc3)C2)cc1 (configuration not stated)	102	102	8	-6
CCOC(=O)C1CCN(/C(C)=C\C(=O)C(F)(F)F)CC1	103	98	-14	0
CC1CCCCN1S(=O)(=O)c1ccc(C(=O)Nc2cccc(-c3nc4ccccc4[nH]3)c2)cc1 (configuration not stated)	100	93	-38	6
CCN(CC)c1ccc(C(=O)NCCO)cc1	104	106	.	7
Cc1oc2ncn3nc(-c4ccncc4)nc3c2c1C	102	104	-4	-18
Cn1ccc2c(OCC(N)=O)cccc2c1=O	103	106	-10	104
COc1ccc(Nc2[nH]nc(NC(=O)COc3ccc(Cl)cc3)c2C#N)cc1	109	111	-11	-6
COc1cccc(C2N(c3ccccc3)C(=O)N3CCCN23)c1 (configuration not stated)	101	102	0	17
Cc1ccc(NC(C)C(=O)Nc2cccc(C(F)(F)F)c2)cc1 (configuration not stated)	103	96	.	16
COc1ccccc1NC(=S)N1CCCCC1CO (configuration not stated)	110	114	-9	.
CC(=O)Nc1ccccc1-c1ccc(C)o1	99	96	1	.
CC1(C)CC2=NN(c3ccccc3)P(=O)(N3CCCCC3)C2=C(N2CCOCC2)C1 (configuration not stated)	108	116	-21	1
N#Cc1ccc(COC(=O)CC2Oc3ccccc3NC2=O)cc1 (configuration not stated)	103	109	-7	-8
C=CCNc1ncnc2c1cnn2-c1cccc(Cl)c1	101	103	7	17
O=C(COc1ccccc1O)c1ccccc1	101	102	.	-6
CC1CC(=O)c2cnc(N3CCOCC3)nc2C1 (configuration not stated)	98	100	-18	11
Cc1cc(-c2ccc(Cl)cc2)c2c(=O)[nH][nH]c2n1	98	105	-40	2
O=c1ccc(-c2ccc(S(=O)(=O)NCCSCc3ccco3)s2)n[nH]1	100	103	-10	-36
CCOC(=O)Nc1cccc2nsnc12	107	114	-18	.
O=C(COc1ccc(Cl)cc1)Nc1c(-c2ccccc2)nc2sccn12	102	101	7	1

Quoted from the listing.
In PV pol inh, Cc1cc(-c2ccc(Cl)cc2)c2c(=O)[nH][nH]c2n1 is listed with 98
In PV pol inh, N#Cc1ccc(COC(=O)CC2Oc3ccccc3NC2=O)cc1 (configuration not stated) is listed with 103

(more compounds)
SMILES	PV pol inh	PV pol inh intensity	MenB inh	Mtb MbtI inh
O=C(CN1C(=O)S/C(=C\c2ccc(Cl)cc2)C1=O)Nc1cccnc1	102	106	-2	-8
O=C(CNC(=O)Nc1ccc(Cl)c(Cl)c1)NC1CC1	98	107	2	0
N#CC(CCN1CCN(c2ccccc2)CC1)(c1ccccc1)c1ccccc1	108	113	-36	.
CS(=O)(=O)N(Cc1cc2ccccc2[nH]c1=O)c1ccccc1	101	105	0	9
O=C(NCCc1ccc(Cl)cc1)c1ccc2c(=O)n(-c3ccccc3)c(=O)[nH]c2c1	100	92	-1	8
CC(CCC(=O)O)[C@H]1CCC2C3CC[C@@H]4C[C@H](O)CC[C@]4(C)C3CC[C@@]21C (some centres not stated)	101	100	-29	-17
Cc1nc2ccccn2c1-c1ccnc(SCC(=O)Nc2ccc(C(C)C)cc2)n1	107	110	-8	-88
CCCn1c(SCC(=O)c2ccccc2)nnc1C(C)C	103	105	2	5
CCOC(=O)c1c(C)cc(C)[nH]c1=O	101	105	-13	.
Cc1oc2nc[nH]c(=O)c2c1C(=O)OC(C)C(=O)N1CCOCC1 (configuration not stated)	103	109	11	0
O=c1[nH][nH]c(=O)n1/N=C/C=C\c1ccccc1	99	103	17	5
O=C(NC1CCCC1)c1ccc(CS(=O)(=O)c2c(Cl)cccc2Cl)o1	100	105	-9	7
Cn1cc(S(=O)(=O)NCCc2ccccc2)c(=O)n(C)c1=O	105	104	-8	-8
Cc1ccccc1Nc1nnc(SCC(=O)NC2CCC(C)CC2)s1 (configuration not stated)	112	106	-30	-2
NCC(O)c1ccc(O)cc1 (configuration not stated)	104&101	99&101	-16&-13	-11&-18
Cn1ccsc1=NC(=O)c1cccc(S(=O)(=O)N2CCCCC2)c1	.	.	-7	-60
COc1ccc(/C=N/n2cnc3c([nH]c4ccc(F)cc43)c2=O)cc1	100	95	5	1
Cc1ccc(C)c(-c2nnc(NC(=O)c3ccc(S(=O)(=O)N4CCc5ccccc54)cc3)o2)c1	101	103	-11	-3
O=C(/C=C/c1ccco1)Nc1ccc(S(=O)(=O)N2CCCCC2)cc1	101	105	6	16
COc1ccc(S(=O)(=O)N(Cc2ccccc2)Cc2nc3ccccc3c(=O)[nH]2)cc1	104	102	-32	-4
CC(C)(C)C(=O)NC1CCN(S(=O)(=O)c2ccccc2C(=O)O)CC1	105	103	-38	-5
Cc1ccccc1N(C)S(=O)(=O)c1ccc2[nH]cc(C(=O)NCCC(C)C)c(=O)c2c1	102	107	8	-17
C=CCn1c(=N)n(CC(O)COc2cccc(C)c2)c2ccccc21 (configuration not stated)	99	101	11	0
Cc1ccc(/C=N/N2CCCCC2)o1	101	111	-1	38
CC1CC(C)CN(CCCNC(=O)Cn2c3ccccc3c3cn[nH]c(=O)c32)C1 (configuration not stated)	103	104	-5	-100
Cc1ccc(C)n1-c1oc(-c2ccco2)c(-c2ccco2)c1C#N	102	106	-72	-43
Nc1nc2ccc(C(=O)OC3CCCCC3)cc2s1	107	106	1	.
COC(=O)C(Cc1ccccc1)NC(=O)c1cc(-c2ccc3c(c2)OCCO3)oc1C (configuration not stated)	105	109	-31	.
CCOc1ccc(OCCSc2nnnn2-c2ccccc2)cc1	101	98	-29	-1
COc1ccc(C2=NN(C(=O)c3ccc(C)cc3)CC2)cc1	103	101	0	12
O=C(CCCCCN1C(=O)C2C3C=CC(C3)C2C1=O)Nc1nccs1 (configuration not stated)	102	101	1	-4
C=CCNC(=O)c1cc(-c2ccccc2)on1	100	100	34*	8
CCC(=O)Nc1ncc2c(n1)CC(c1ccc(N(C)C)cc1)CC2=O (configuration not stated)	102	103	-19	-10
CC(C)OC(=O)c1sc2nc3c(cc2c1N)C(=O)CCC3	104	103	-50	0
O=C(O)C1CCCN(S(=O)(=O)Cc2ccccc2)C1 (configuration not stated)	102	103	18	-6
Cn1ccnc1SCC(=O)Nc1ccc(S(N)(=O)=O)cc1	105	108	-15	-2
Cc1[nH]nc2c1C(c1ccc3ccccc3c1)CC(=O)N2 (configuration not stated)	102	106	1	-11
O=C(Nc1ccc(Cl)cc1)N1CCC(O)CC1	104	97	-10	-6
Cn1ncc2c(O/N=C/c3ccc(Cl)cc3Cl)ncnc21	103	103	-14	-5
CCSc1nnc(-c2ccc(Cl)cc2)o1	100	101	-4	15
CCOc1ccc(-n2cc(C(=O)Nc3ccc(N4CCOCC4)cc3)nn2)cc1	101	102	9	-6
O=C(c1cccs1)N1CCN(c2ccccc2)CC1	99	99	.	3
CC(OC(=O)c1ccc(NC(=O)Cc2ccccc2)cc1)C(=O)c1ccccc1 (configuration not stated)	111	107	-41	.
COC(=O)c1c(C)c[nH]c1C	110	113	15	-1
Cc1c(Cl)cccc1NC(=S)N(CCCN1CCCC(C)C1)Cc1ccco1 (configuration not stated)	102	102	-6	-2
COc1ccc2oc(=O)c(-c3nnc(NCc4ccc5c(c4)OCO5)s3)cc2c1	103	105	11	1
CN(C)Cc1nc2ccccc2c(=O)[nH]1	104	103	-33	3
COC(=O)C1=C(Nc2ccc(F)cc2F)CSC1	105	109	-6	-2

Three entries out of the list, sorted by heavy-atom count, low to high.
SMILES	PV pol inh	PV pol inh intensity	MenB inh	Mtb MbtI inh
Cn1ncc2c(O/N=C/c3ccc(Cl)cc3Cl)ncnc21	103	103	-14	-5
Cc1c(Cl)cccc1NC(=S)N(CCCN1CCCC(C)C1)Cc1ccco1 (configuration not stated)	102	102	-6	-2
CC(OC(=O)c1ccc(NC(=O)Cc2ccccc2)cc1)C(=O)c1ccccc1 (configuration not stated)	111	107	-41	.

Continued:
SMILES	PV pol inh	PV pol inh intensity	MenB inh	Mtb MbtI inh
COC(=O)c1cccc(Nc2cc(C)nc3ccccc23)c1	102	102	6	69
C=CCNC(=O)c1cc2n(n1)C(C(F)(F)F)CC(c1ccco1)N2 (configuration not stated)	101	102	-1	-4
NC(=O)C1CCN(C(=O)COC(=O)C23CC4CC(CC(C4)C2)C3)CC1	102	97	-41	-32
CC1=C(C(=O)OC2CCCC2)C(c2ccccc2)NC(=O)N1 (configuration not stated)	103	104	23	2
Cc1cc(=O)[nH]c(SCC(=O)OCc2ccccc2)c1C#N	100	100	25	-53
CCc1oc(C(=O)O)cc1COC	101	99	-34	-6
Cc1ccc(S(=O)(=O)N2CCN(C(=O)CCC(=O)NC3CCCc4ccccc43)CC2)cc1 (configuration not stated)	105	100	-11	2
Cc1ccc2c(c1)c1c3n2CCN(C(=O)c2c(-c4ccccc4Cl)noc2C)C3CCC1 (configuration not stated)	100	104	7	-13
CCCCSc1nnc(CNC(=O)c2ccc(OC)cc2)n1CCCC	103	102	-17	-6
Cc1cc(C(=O)NN)n(C(C)(C)C)n1	105	108	-2	-12
Cc1c(C(=O)N(C)C)sc2c1c(=O)n(-c1ccccc1C(F)(F)F)c(=O)n2CC(N)=O	103	107	-11	6
S=C(NCc1ccccc1)N/N=C/c1ccco1	100	105	10	16
Cc1ccc2nc(Sc3cccc(Cl)c3)[nH]c2c1	105	107	-40	-18
O=C(Nc1ccc(N2CCCCCC2)cc1)c1ccncc1	110	108	-20	-2
Cc1cc(=S)n(-c2ccccc2)n1C	104	101	5	4
Nc1ncc(-c2nnnn2-c2ccccc2)c(-c2ccccc2)n1	104	106	-20	14
Cc1cccc(-c2nnc(C(C)Oc3cc(Cl)ccc3Cl)o2)c1 (configuration not stated)	106	107	-52	0
CC(NC(=O)Nc1ccc2c(c1)OCO2)c1ccncc1 (configuration not stated)	101	103	-5	-4
O=C(c1ccccc1)N(C(=O)c1ccccc1)C(=O)c1ccccc1	102	109	7	-10
FC(F)(F)c1ccnc(NCCNC(=S)Nc2ccc3c(c2)OCCO3)n1	100	100	-10	0
Cc1ccc(S(=O)(=O)/N=C2\C=C(Sc3ncn[nH]3)C(=O)c3ccccc32)cc1	102	102	-58	86*
COc1ccc(C(C)(C)C)cc1NC(=O)COC(=O)C1CC(=O)N(Cc2ccco2)C1 (configuration not stated)	101	99	-10	-12
O=C(NN1C(=O)CCC1=O)c1cccc(Br)c1	100	102	4	3
O=C1C(O)=C(O)C(=O)C(O)=C1O	97*!	96*!	-5&-6	-36&-9
O=C1CCCCC1Sc1nnc(-c2ccco2)n1-c1ccccc1 (configuration not stated)	105	103	3	14
CN(Cc1ccco1)C(=O)CCS(=O)(=O)c1ccc2c(c1)n(C)c(=O)c(=O)n2C	100	102	5	5
CCc1nc2ccccc2c(=O)n1-c1cccc(OC)c1	101	103	4	-1
CCCc1cc(=O)n2nc(N3CCC(C(=O)Nc4ccc(CC)cc4)CC3)sc2n1	121	124	-22	-10
O=c1oc2ccccc2c2c1nc(C(F)(F)F)n2-c1ccccc1	102	106	3	-8
Cc1sc(-n2cccc2)c(C(=O)NC(C)CCc2ccccc2)c1C (configuration not stated)	104	105	-6	11
CCC(=O)Nc1ccc(C(=O)CN2C(=O)C3CC=CCC3C2=O)cc1 (configuration not stated)	.	.	-15	-8
CC12CC3(C)CC(C)(C1)CC(CN=Cc1ccc(O)cc1)(C2)C3	102	105	8	5
S=C(c1cccs1)N1CCCC1	101	95	-4	.
CC(C)n1cn[nH]c1=S	96	98	-23	59*
CCOC(=O)c1oc2ccccc2c1N=Cc1c(O)[nH]c(=O)[nH]c1=O	102	107	-15	-126
COC(=O)CCc1nc2ccccc2[nH]1	101	101	-15	-10
O=C(Cn1[nH]c(=O)ccc1=O)OCc1ncc(-c2cccc(Cl)c2)o1	106	105	1	-22
O=C1CC(C(=O)Nc2ccccc2)N=C(N2CCc3ccccc3C2)N1 (configuration not stated)	99	102	19	-2
CCc1nc(N2CCC(C)CC2)c(C#N)c2c1COC(C)(C)C2	102	102	6	12

Entries shown so far that contain a tert-butyl group, in the order listed:
SMILES	PV pol inh	PV pol inh intensity	MenB inh	Mtb MbtI inh
CC(C)(C)C(=O)NC1CCN(S(=O)(=O)c2ccccc2C(=O)O)CC1	105	103	-38	-5
Cc1cc(C(=O)NN)n(C(C)(C)C)n1	105	108	-2	-12
COc1ccc(C(C)(C)C)cc1NC(=O)COC(=O)C1CC(=O)N(Cc2ccco2)C1 (configuration not stated)	101	99	-10	-12

Quoted at random: three compounds from above
SMILES	PV pol inh	PV pol inh intensity	MenB inh	Mtb MbtI inh
CS(=O)(=O)N(Cc1cc2ccccc2[nH]c1=O)c1ccccc1	101	105	0	9
Cc1ccc(C)c(-c2nnc(NC(=O)c3ccc(S(=O)(=O)N4CCc5ccccc54)cc3)o2)c1	101	103	-11	-3
O=c1[nH][nH]c(=O)n1/N=C/C=C\c1ccccc1	99	103	17	5

Compound activity (PubChem)
